# Sfp PPTase inh: qHTS Assay for Inhibitors of Bacillus subtilis Sfp phosphopantetheinyl transferase (PPTase); 4'-phosphopantetheinyl transferase ffp (Bacillus subtilis), Q9F4F7; Biochemical Sfp PPTase activity, qHTS; Potency, µM, inactives show max response, negative = inhibition, hits mostly inhibitors; 310,000 compounds, 3.5% hits; AID 1490, 2009; active means well fitted inhibition curve with a large enough effect; inconclusive means small, poorly fitted or top-dose-only effect, or another doubt; inactive means no such curve, though single readings can be large or run the other way;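 further: the enzyme is Sfp with the accession as filed and its product quenches rhodamine fluorescence; potency means the concentration at half of the fitted maximal effect; 0% = enzyme reaction without inhibitor and -100% = no enzyme wells; top concentration of the series not given in the record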
#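 Compounds were incubated with enzyme (final 15 nM) for 15 min at room temperature before substrate addition started the reaction. Fluorescence at 525 nm excitation, 598 nm emission was recorded immediately and after 30 minutes.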
# TRPV1 potentiator: HTS Assay for Compounds that Act as Potentiators of the Vanilloid Receptor 1; 320,000 compounds, 0.02% hits; TRPV1-expressing cells, Fluo-8 calcium influx, capsaicin EC20 potentiation; host cell line not named in the record; control for the full effect not named in the record; Transient receptor potential cation channel subfamily V member 1 (Homo sapiens), Q8NER1; potentiation, % at 8.33 µM; active means potentiation above 80%; inconclusive means 30% to 80%; inactive means below 30%; further: 0% is about no effect
# Target sequence (Q8NER1 whole entry, looked up): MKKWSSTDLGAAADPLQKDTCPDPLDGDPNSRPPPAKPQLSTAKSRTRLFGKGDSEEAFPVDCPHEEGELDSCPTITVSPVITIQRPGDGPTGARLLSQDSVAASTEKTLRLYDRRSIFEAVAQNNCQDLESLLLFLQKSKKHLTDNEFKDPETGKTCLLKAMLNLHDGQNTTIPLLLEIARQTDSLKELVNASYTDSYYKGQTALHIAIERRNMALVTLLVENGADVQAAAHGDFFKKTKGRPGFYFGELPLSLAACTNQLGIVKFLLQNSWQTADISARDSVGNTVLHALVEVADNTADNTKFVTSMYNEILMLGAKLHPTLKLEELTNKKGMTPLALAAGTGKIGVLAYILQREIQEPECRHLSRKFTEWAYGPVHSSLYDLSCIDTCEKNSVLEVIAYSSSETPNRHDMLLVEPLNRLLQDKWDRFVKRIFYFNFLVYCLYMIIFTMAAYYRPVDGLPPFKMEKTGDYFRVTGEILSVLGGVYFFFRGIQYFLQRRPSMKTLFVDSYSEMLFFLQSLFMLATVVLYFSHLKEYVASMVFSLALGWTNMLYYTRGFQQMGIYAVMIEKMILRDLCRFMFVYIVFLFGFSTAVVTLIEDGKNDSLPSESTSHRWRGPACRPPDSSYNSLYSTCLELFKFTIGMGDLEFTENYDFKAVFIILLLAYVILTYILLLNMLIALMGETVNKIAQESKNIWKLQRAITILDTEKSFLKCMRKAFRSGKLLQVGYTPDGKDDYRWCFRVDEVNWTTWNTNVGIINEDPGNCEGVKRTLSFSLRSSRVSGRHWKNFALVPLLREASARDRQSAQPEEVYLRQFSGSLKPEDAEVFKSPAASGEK
#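 Cells expressing TRPV1 were dye-loaded with Fluo-8 and read kinetically: 10 s baseline, 3 min after compound (agonist portion), then 2 min after EC20 capsaicin (allosteric enhancer portion). Calcium-bound dye fluorescence at 480/520 nm.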
# TRPML1 inh: qHTS for Inhibitors of the Human Mucolipin Transient Receptor Potential 1 (TRPML1); Mucolipin-1 (Homo sapiens), Q9GZU1; TRPML1-inducible cells, Ca2+ dye fluorescence, FDSS; hits give low values; inhibition of EC80 agonist-evoked calcium signal; activity change, negative = inhibition, % (no concentration beside the values); 390,000 compounds, 0.02% hits; AID 624415, 2012; in the data active means activity change below about -50%; inconclusive means about -30% to -50%; inactive means above about -30%;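 further: stimulus is agonist 54-4 at its EC80 concentration; on the % scale 0 is the no-effect control and ±100 the full control effect; compound concentration not given in the record; the text of the record puts the active cut at -80%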
#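 Tet-induced TRPML1-DL cells loaded with Ca8 no-wash calcium dye were read kinetically on FDSS. Compound addition was followed by EC80 agonist 54-4 (4 uM final); inhibition was read over 110 s.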
# Menin MLL FP FL: qHTS Assay for Inhibitors Targeting the Menin-MLL Interaction in MLL Related Leukemias: Competition With Fluorescein Labeled MLL-derived Peptide | Fluorescence polarization, fluorescein-MLL peptide displacement from menin | FP activity change, % at 61.4 µM | 290,000 tested, under 10 active | AID 1766, 2009; inconclusive = falling polarisation curve, or a change in total fluorescence; inactive = total fluorescence flat and polarisation flat or rising; no compound was filed as active; the % refers to the polarisation; negative = inhibition;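 further: % of control where 0% means no effect; inhibitors lower the polarisation; unlabelled MLL peptide was the positive control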
# TRPML1 ag: qHTS for Agonists of the Human Mucolipin Transient Receptor Potential 1 (TRPML1) | Mucolipin-1 (Homo sapiens), Q9GZU1 | TRPML1-expressing cells, Ca2+ dye fluorescence, FDSS; host cell line not named in the record; reference of the full effect not given here | activation, % (no concentration beside the values) | 410,000 compounds, 0.12% hits | AID 624414, 2012; in the data active = activation above about 50%; inconclusive = about 30% to 50%; inactive = below about 30%; further: 0% is about no effect; the text of the record puts the active cut at 80%
#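 Calcium fluorescence on an FDSS kinetic reader gave the read-out. Tet-induced TRPML1-DL cells were plated overnight, dye-loaded (Ca8 with quencher, 45-90 min, room temperature, dark), then read 110 s after compound addition, and again 110 s after 4uM final 54-4 (EC80).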
# ClpP mod: qHTS Assay for Activators of ClpP; purified B. subtilis ClpP, FRET peptide cleavage, 20 min; AID 651965, 2013; Potency, µM (titrated, usually from 57.5 µM), inactives show top-dose activity change, negative = active; ATP-dependent Clp protease proteolytic subunit (Bacillus subtilis (strain 168)), P80244; 340,000 compounds, 1.9% hits; active = well fitted falling curve with a large enough effect; inconclusive = small, poorly fitted or top-dose-only effect; inactive = no such curve, though single readings can be large or run the other way; further: potency means the concentration at half of the fitted maximal effect; the source files actives as falling curves though it sought activators and does not explain the sign; nearly all actives have a fitted effect of over 65% in size; many hits overshoot -100%
# Target sequence (P80244 whole entry, looked up): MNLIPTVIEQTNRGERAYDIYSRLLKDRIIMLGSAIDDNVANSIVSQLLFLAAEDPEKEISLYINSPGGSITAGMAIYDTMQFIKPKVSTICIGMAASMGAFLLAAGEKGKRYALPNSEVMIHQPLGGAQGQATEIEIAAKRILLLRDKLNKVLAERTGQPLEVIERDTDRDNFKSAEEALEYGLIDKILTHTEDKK
#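 Purified B. subtilis ClpP, 10 microg/mL final in Tris/HCl pH8 with KCl, BSA, glycerol and Tween-20, cleaved an Abz/nitrotyrosine-quenched decapeptide. Fluorescence (ex 320, em 430) was read at 0 and 20 min at room temperature. Delta was normalized to 5.8 microM ADEP and DMSO/no-enzyme controls.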
# PINK1 expr mod: A Quantitative High throughput Screen to Identify Chemical Modulators of PINK1 Expression | Potency, µM (series often up to 76.6 µM), for inactives: at the highest dose activation (PINK1 increase), hits mostly activators | 410,000 compounds, 0.2% hits | PINK1 immunofluorescence, high-content cytometry, 24 h; active = well fitted activation curve with a large enough effect; inconclusive = small, poorly fitted or top-dose-only effect; inactive = flat fitted curve, though single readings scatter; cell line not stated here;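 further: potency means the concentration at half of the fitted maximal effect; % of control where 0% means no effect; nearly all actives have a fitted effect of over 65% in size; a mitochondrial uncoupler was the plate control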
#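 Measures PINK1 amount and localization on or inside mitochondria by immunofluorescence. Stable cells get compounds at 5 concentrations for 24 hours before fixation and staining; CCCP controls included.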
# Active calls of the source: *; u = inconclusive; x = no result given; [ ] = another dose, or the depositor's remark.
SMILES,Sfp PPTase inh,TRPV1 potentiator,TRPML1 inh,Menin MLL FP FL,TRPML1 ag,ClpP mod,PINK1 expr mod
CCOC(=O)C(=CNc1ccc(-c2ccco2)c(Cl)c1)C(=O)OCC,28µM*,-4,13,15,2.4,4.0%,-0.6%
O=C(Nc1ccc2cn[nH]c2c1)c1ccc(S(=O)(=O)N2CCOCC2)cc1,9%,5,21,-3.5,0.6,-0.6%,-0.8%
CCC(C)NC(=O)Cc1ccc(-c2ccccc2)cc1 (stereo not given),20%,-10,10,-0.6,0.5,0.3%,3.8%
Cc1ccc(-c2nn3c(C)nnc3s2)cc1NC(=O)c1ccc(-c2ccc(Cl)cc2Cl)o1,13µM*,-15,5,11,1.8,28%,u
Cc1c(Cl)cccc1NC(=O)Cn1cc(C(=O)c2cccs2)c2ccccc21,x,x,-6,x,-1.0,-12%,4.3%
Clc1ccc(-c2cc(-c3ccccc3)on2)cc1,x,u,0,x,-0.2,-0.7%,-0.4%
O=C(Cn1c(=O)oc2cc(S(=O)(=O)NCc3ccccc3)ccc21)Nc1cccc(F)c1,x,x,-6,x,0.0,-0.2%,1.7%
Cc1cc(C)c(NC(=O)C(C)OC(=O)c2cc(Br)c(Br)s2)c(C)c1 (stereo not given),7%,-16,6,7.2,0.0,1.1%,13%
Cc1ccc(NC(=O)CN2C(=O)CC(c3ccco3)Sc3ccccc32)cc1Cl (stereo not given),x,x,-17,x,2.0,-3.1%,1.3%
Cc1ccc2cc(CN(C(=O)c3ccco3)c3ccccc3)c(=O)[nH]c2c1,28µM*,u,5,1.6,0.7,-9.3%,-1.4%
Cc1[nH]c2ccccc2c1/C=C(\C#N)C(=O)NC(C)c1ccccc1 (stereo not given),-14%,-7,-9,-1.2,3.6,-1.3%,2.5%[38.3 µM]
COc1ccccc1C/C(N)=N/OC(=O)c1cccc([N+](=O)[O-])c1,-1%,0,-2,1.6,1.6,-0.4%,6.2%
CC(=O)OCCN(C)c1cc(SC(C)C)c2nonc2c1[N+](=O)[O-],-27%,-3,-14,1.2,-1.3,-1.7%,3.9%
CCCCN(C(=O)c1cc(S(=O)(=O)N2CCOCC2)ccc1F)c1c(N)n(CCCC)c(=O)[nH]c1=O,x,x,-11,x,0.7,-1.5%,0.6%
CC(=O)OCCN1C(=O)c2ccc(-c3nc4ccccc4c(=O)o3)cc2C1=O,x,x,-4,x,2.8,x,3.0%
CCOC(=O)Nc1cc(=O)c2ccccc2o1,-9%,-19,-4,0.4,1.3,32µM*,9.2%[38.3 µM]
NC(CCc1ccccc1)c1csc(Nc2nccc(C(F)(F)F)n2)n1 (stereo not given),x,x,x,x,0.6,1.7%,-1.2%
Cc1ccc(/C=C2\C(=N)N3N=C(CC(=O)N4CCOCC4)SC3=NC2=O)o1,4%,5,-6,x,-0.3,-1.4%,-1.2%
O=C(CSc1nnc(Nc2ccccc2)s1)NCc1cccs1,6%,-21,18,1.1,-0.6,-2.0%,-0.5%
N[C@@H](Cc1ccccc1)C(=O)N1CCC(C(=O)N[C@@H](CCC(=O)O)C(=O)O)CC1,-3%,6,-4,2.6,0.0,-3.2%,0.1%
COC(=O)COc1ccc(S(=O)(=O)Nc2ccccc2SC)cc1,2%,10,-16,3.1,-0.3,-1.3%,2.9%
O=Cc1cn(Cc2ccccc2)nc1-c1cccnc1,-6%,2,-8,-5.4,-0.1,x,3.4%
Cc1ccc(NC(=O)CCn2c(=O)[nH]c3ccsc3c2=O)cc1F,7%,-2,11,-9.8,0.9,x,17%
O=S(=O)(c1cccs1)N1CCN(c2ccnc3cc(Cl)ccc23)CC1,-17%,3,11,2.1,3.3,x,-2.0%
CC1CC(C)CN(C(=O)C(Cc2ccccc2)n2cccc2)C1 (stereo not given),2%,-4,17,1.2,1.6,x,15%
SMILES,Sfp PPTase inh,TRPV1 potentiator,TRPML1 inh,Menin MLL FP FL,TRPML1 ag,ClpP mod,PINK1 expr mod
O=C(Cn1c(-c2ccccc2)noc1=O)N1CCC(Cc2ccccc2)CC1,3%,-18,18,-1.7,1.0,x,-0.8%
O=c1[nH][nH]c2c1C(c1ccc(Cl)c(Cl)c1)OC(CCc1ccccc1)C2 (stereo not given),x,x,x,x,-0.5,-1.8%,7.5%
CCOC(=O)c1nnn(-c2nonc2-n2cccc2)c1CCl,0%,-3,0,-1.2,-1.1,-5.3%,3.7%
COc1ccc(OCC2c3cc(OC)c(OC)cc3CCN2C(=O)c2c(F)cccc2F)cc1 (stereo not given),x,x,13,x,1.4,1.2%,8.3%
C/C(=N/O)c1ccc(N2C(=O)C3C4C=CC(C3C2=O)C2C3C(=O)N(c5ccc(/C(C)=N/O)cc5)C(=O)C3C42)cc1 (stereo not given),5%,4,x,3.0,x,x,x
COc1ccc(N(CC(=O)NCCSCc2ccc(Cl)cc2)S(C)(=O)=O)cc1Cl,19%,-6,1,-9.5,-1.4,1.8%,0.5%
O=C(NCCCN1CCOCC1)c1onc(CSc2ccncc2)c1C(=O)NCCCN1CCOCC1,x,x,29,x,-0.2,-1.0%,-0.4%
CCCCc1cc(=O)oc2cc(C)cc(OCC(=O)N3CCC(C(=O)O)(c4ccccc4)CC3)c12,9%,11,x,2.9,x,4.8%,-0.9%
Cc1ccc2nc(-c3ccc(NS(=O)(=O)c4ccccc4)cc3)sc2c1,-14%,9,-26,-1.8,-0.4,0.4%,7.8%
COc1cccc(C(=O)Nc2cccc(C(=O)OCc3cc(=O)n4c5c(sc4n3)CCCC5)c2)c1,x,x,-28,x,1.2,-29%,-0.7%
CCOc1ccc(NC(=O)COc2ccc(C(=O)NCC3CCCO3)cc2OC)cc1 (stereo not given),x,7,1,x,2.6,1.8%,0.2%
O=C(CCc1ccc(S(=O)(=O)N2CCOCC2)cc1)Nc1ccc(N2CCOCC2)cc1,2%,7,-4,1.9,-0.1,2.1%,0.8%
Cc1ccc2nsnc2c1S(=O)(=O)NCc1ccncc1,9%,-9,-13,3.7,-0.2,-5.9%,1.7%
O=c1c2ccccc2n(Cc2cccc(F)c2)c(=O)n1C1CCCC1,6%,-14,5,0.4,4.0,-6.9%,-0.1%
CCN(c1ccccc1)S(=O)(=O)c1ccc(Cl)c(NC(=O)COC(=O)C2CC2C)c1 (stereo not given),18%,-1,23,0.2,5.2,x,1.3%
CC(C)C1CCN(C(=O)C2CCC(=O)N(C3CCCCCC3)C2)CC1 (stereo not given),x,x,23,x,0.3,1.0%,0.2%
COC(=O)CCC/C=C1/SCC(NC(=O)c2ccccc2)C1O (stereo not given),-11%,16,-14,2.9,-0.3,-2.2%,-5.1%[38.3 µM]
COc1cccc(C(=O)COC(=O)C2CC3CCCC(C2)C3=O)c1 (stereo not given),x,-9,32,x,-0.9,-1.4%,1.2%
O=C(CSc1ncnc2scc(-c3ccccc3)c12)N1CCN(Cc2ccc3c(c2)OCO3)CC1,-17%,14,6,u,1.2,-2.0%,0.2%
COCCN(C(=O)CCC(=O)Nc1ccccn1)C(C(=O)NC(C)C)c1ccc(C)cc1 (stereo not given),26%,-8,-7,1.7,0.2,x,2.2%
Cc1cc(C)c(NC(=O)CN(C)S(=O)(=O)c2ccc3c(c2)CCC(=O)N3)c(C)c1,x,x,10,x,-0.6,0.7%,-0.2%
CCCCN(C(=S)Nc1ccccc1)C1CCS(=O)(=O)C1 (stereo not given),23%,1,-7,2.4,0.7,0.4%,-0.8%
COc1ccc(S(=O)(=O)NCCc2sc(-c3cccnc3)nc2C)cc1,x,x,29,x,0.9,3.7%,0.1%
CCc1ccc(CNC(=O)CCc2nnc(CCc3ccc(OC)cc3)o2)nc1,17%,13,-12,3.7,0.7,1.4%,1.4%
COc1cccc(-c2nnc(SCC(=O)NC3CCS(=O)(=O)C3)n2C)c1 (stereo not given),x,7,-2,x,1.2,-0.5%,0.1%
SMILES,Sfp PPTase inh,TRPV1 potentiator,TRPML1 inh,Menin MLL FP FL,TRPML1 ag,ClpP mod,PINK1 expr mod
O=C(CN1CCCCC1CO)c1ccc(OC(F)F)cc1 (stereo not given),16%,1,24,0.0,1.0,-2.7%,-0.9%
CCOc1ccc2nc(NS(C)(=O)=O)sc2c1,-26%,-5,2,0.9,-0.2,1.8%,-1.0%
COn1c(=O)c(=O)n(OC)c2ccccc21,17%,15,-25,1.8,-0.1,-0.2%,-0.7%
COc1ccccc1/C=C/c1nc(S(=O)(=O)c2ccccc2)c(NCCN(C)C)o1,-2%,-1,-8,-12,0.8,3.9%,-0.9%
C#CCOCCOCCOCCNc1nc(N2CCN(C(=O)[C@H]([C@@H](C)CC)n3cc([C@@H](N)CC(C)C)nn3)CC2)nc(N2CCN(C(=O)[C@H](CCCCN)n3cc([C@@H](N)C(C)CC)nn3)CC2)n1 (stereo not given in full),10%,15,-4,2.3,-0.3,-3.4%,-0.8%
CC1(C)Cc2nc(-c3ccccc3)nc(SCC(=O)N3CCOCC3)c2CO1,13%,-7,9,x,0.2,0.8%,-0.4%
COc1ccc(NC(=O)CS(=O)(=O)c2cn(CC(=O)N(C(C)C)C(C)C)c3ccccc23)c(OC)c1,4%,9,-4,x,0.5,-3.2%,1.0%
O=C(NCc1cccs1)c1noc2c1CCCCC2,9%,-13,-2,0.7,0.6,-2.3%,5.4%[38.3 µM]
COc1cccc(C2Nc3ccccc3C(=O)N2O)c1O (stereo not given),1%,-7,1,-1.9,0.5,0.5%,-0.9%

# Looked up above:
# Result of COc1ccc(N(CC(=O)NCCSCc2ccc(Cl)cc2)S(C)(=O)=O)cc1Cl under PINK1 expr mod: 0.5%
# Result of O=C(Cn1c(-c2ccccc2)noc1=O)N1CCC(Cc2ccccc2)CC1 under TRPML1 inh: 18
# Result of CCc1ccc(CNC(=O)CCc2nnc(CCc3ccc(OC)cc3)o2)nc1 under TRPML1 inh: -12
